Cruzain Triton: cruzain (T. cruzi) inhibition with detergent. Potency, µM, without a hit: max response, negative = inhibition, actives largely listed as inhibitors. P25779. AID 1478. hit rate 0.43% among 200,000. purified cruzain, Z-FR-AMC fluorescence, 0.01% Triton; active = well fitted curve in the direction sought with a large enough effect; inconclusive = small, poorly fitted or top-dose-only effect, or another doubt; inactive = no such curve, though single readings can be large; an effect the other way counts as inactive or inconclusive;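 note: plate controls were neutral wells for no effect and buffer without enzyme for full effect; nearly all actives have a fitted effect of over 40% in size; top concentration of the series not given in the record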
Target sequence (P25779 123-467 limits assumed): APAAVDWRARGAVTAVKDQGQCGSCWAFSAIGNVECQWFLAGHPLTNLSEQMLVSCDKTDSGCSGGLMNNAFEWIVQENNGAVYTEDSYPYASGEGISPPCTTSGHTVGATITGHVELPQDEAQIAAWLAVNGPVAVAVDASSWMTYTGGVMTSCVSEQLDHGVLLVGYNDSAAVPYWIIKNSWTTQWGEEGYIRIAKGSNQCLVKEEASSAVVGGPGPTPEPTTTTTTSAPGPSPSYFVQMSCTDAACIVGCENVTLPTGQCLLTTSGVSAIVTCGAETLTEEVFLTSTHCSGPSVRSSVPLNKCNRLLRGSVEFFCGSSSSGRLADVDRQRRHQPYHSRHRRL
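Detergent-containing run (0.01% Triton X-100) in acetate buffer pH 5.5 with 5 mM DTT: enzyme at 1.5 nM final, 15 min compound preincubation at room temperature, then 2 uM Z-FR-AMC substrate. Activity taken as 60 s fluorescence increase at 360/450 nm.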
Cruzain inh noDet: inhibitors of Trypanosoma cruzi cruzain without detergent; purified cruzain, Z-FR-AMC fluorescence, no detergent; AID 1476; Potency, µM, without a hit: max response, negative = inhibition, hits mostly inhibitors; hit rate 2.3% among 200,000; P25779; active = well fitted curve in the direction sought with a large enough effect; inconclusive = small, poorly fitted or top-dose-only effect, or another doubt; inactive = no such curve, though single readings can be large; an effect the other way counts as inactive or inconclusive;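 note: plate controls were enzyme without inhibitor for no effect and buffer without enzyme for full effect; nearly all actives have a fitted effect of over 40% in size; top concentration of the series not given in the record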
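Detergent-free condition (0.00005% Triton X-100) in acetate buffer pH 5.5 with DTT. 1.5 nM enzyme and compound were pre-mixed 15 min, then 2 uM Z-FR-AMC substrate added; reaction progress from fluorescence change between first and third reads (60 s).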
NS1 function inh: influenza NS1 inhibition. S. cerevisiae slowed by influenza A NS1, growth recovery by OD600. Potency, µM (doses to about 46.1 µM), for inactives: at the highest dose activity, positive = more growth. hit rate 0.4% among 270,000. AID 2326; note: actives are rising curves; nearly all actives have a fitted effect of over 50% in size
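Growth recovery, yeast-based: influenza A NS1 expressed in S. cerevisiae causes slow growth, and suppressors are detected by OD600. The parent strain without NS1 is used as positive control.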
StopGo reporter: lowers the luciferase signal of an FMDV 2A StopGo reporter | hit rate 1.2% among 410,000 | Potency, µM (series often up to 57.9 µM), for the others: top-dose signal change, negative = less light | AID 1159524 | human cells with a luciferase reporter of 2A StopGo recoding; control for the full effect not named in the record; active = well fitted falling curve with a large enough effect; inconclusive = small, poorly fitted or top-dose-only effect; inactive = no such curve, though single readings can be large or run the other way; tested in HEK293T cells; note: % is set by controls: 0 for no effect and ±100 for the full control effect; nearly all actives have a fitted effect of over 45% in size; luciferase light after 4 h
LASV entry inh: Lassa virus entry inhibition; Potency, µM (series often up to 37.9 µM), for the others: top-dose activity change, negative = inhibition, actives largely listed as inhibitors; hit rate 1.2% among 300,000; Lassa virus pseudotype entry inhibition, cell reporter; control for the full effect not named in the record; AID 540256; active means well fitted inhibition curve with a large enough effect; inconclusive means small, poorly fitted or top-dose-only effect, or effect the other way; inactive means flat fitted curve, though single readings scatter; tested in HEK293 cells; note: % is set by controls: 0 for no effect and ±100 for the full control effect; nearly all actives have a fitted effect of over 50% in size; luciferase read-out
RE007 growth inh: less growth of the S. pombe RE007 Vpr strain | S. pombe RE007 Vpr strain, BacTiter-Glo ATP luminescence, 24 h; control for the full effect not named in the record | Potency, µM (top dose mostly 92.2 µM), without a hit: at the highest dose activity change, negative = less growth | hit rate 0.21% among 360,000 | AID 651644; active = well fitted falling curve with a large enough effect; inconclusive = small, poorly fitted or top-dose-only effect; inactive = no such curve, though single readings can be large or run the other way;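 note: % is set by controls: 0 for no effect and ±100 for the full control effect; nearly all actives have a fitted effect of over 50% in size; the assay follows cell death caused by Vpr and the record does not say whether a fall means rescue or toxicity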
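Fission yeast RE007 carrying one integrated HIV-1 vpr copy, seeded at OD 0.01 in PMG+AL medium with 23 nL pinned compound. Grown 24 h at 30 degrees; viability read by BacTiter-Glo luminescence after 5 min.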
SARS PLpro yeast: SARS-CoV PLP inhibition in yeast. S. cerevisiae expressing SARS-CoV PLpro, growth rescue; control for the full effect not named in the record. Potency, µM (series often up to 32.9 µM), without a hit: at the top dose activity, positive = growth rescue. hit rate 0.19% among 330,000. AID 485353; note: 0% is about no effect; nearly all actives have a fitted effect of over 55% in size; growth read by luminescence after 48 h
Marburg entry inh: Marburg virus entry inhibition. Marburg virus pseudotyped entry inhibition, cell reporter; control for the full effect not named in the record; about a third of the inactives were read at about 46 µM. Potency, µM (series often up to 37.8 µM), for the others: at the top dose activity change, negative = inhibition, usual class: inhibitors. hit rate 1.8% among 300,000; active = well fitted inhibition curve with a large enough effect; inconclusive = small, poorly fitted or top-dose-only effect, or effect the other way; inactive = flat fitted curve, though single readings scatter; tested in HEK293 cells; about a fifth of its hits are not listed in these tables; note: % is set by controls: 0 for no effect and ±100 for the full control effect; luciferase read-out
The depositor's hits bear a star; ? = inconclusive; / = no result given; & = joins results of further samples; [ ] = remark or other dose. Unless noted, calls come from the whole dose curve; as a rule, active means well fitted rising curve with a large enough effect; inconclusive means small, poorly fitted or top-dose-only effect; inactive means no such curve, though single readings can be large or run the other way. Potency is the fitted concentration of half-maximal effect.

SMILES	Cruzain Triton	Cruzain inh noDet	NS1 function inh	StopGo reporter	LASV entry inh	RE007 growth inh	SARS PLpro yeast	Marburg entry inh
COc1ccc(CN2CCN(Cc3ccc(CO)o3)CC2CCO)cc1C (stereo not given)	/	/	-6%	1%	-1%[46.1 µM]	-11%	3%	20%[46.1 µM]
Cc1cccc(OCC(=O)NNC(=O)CSc2ncc(C#N)c(N)n2)c1	-1.3%	4%	6%	13%	10%	-4%	7%	-12%
COC(=O)CSc1cc(C)nc2ccc(OC)cc12	-5.0%	-3%	-17%	-4%	10%	-22%	4%	4%[46.1 µM]
CSc1nsc2nc(=O)c(/C=C3\C(C)=Nc4ccccc43)c(N)n12	/	/	-16%	9%	16%[46.1 µM]	-14%	2%	14%[46.1 µM]
COc1cc(OC)cc(C(=O)Nc2ccc3nc(N4CCC(C)CC4)cc(C)c3c2)c1	-21%	?	/	-25%	-24%[46.1 µM]	/	/	?
CSc1ccc(/C=N/n2c(C)cc(C)cc2=O)cc1	-5.3%	-10%	-10%	59%[activator]	16%	-16%	4%	21%
COCCCNC(=O)c1c(NC(=O)Cc2coc3cc(C)cc(C)c23)sc2c1CCCC2	-9.6%	-4%	/	12%	-5%[46.1 µM]	/	/	-15%[46.1 µM]
C=CCN1C(=O)CS/C1=N/c1nccs1	4.0%	-4%	-3%	-14%	-46%[14.3 µM]	10%	-2%	26%
CCOc1ccc(-n2c(-c3ccc(Br)cc3)c[n+]3c2CCCCC3)cc1	/	/	/	?	?	-14%	-3%	?
CC(=C/c1ccccc1)/C=N/N1CCN(Cc2ccc(C)cc2)CC1	/	/	2%	-27%	0%[46.1 µM]	5%	0%	2%[46.1 µM]
COc1ccccc1N1CCN(S(=O)(=O)c2cc(C(F)(F)F)cc(C(F)(F)F)c2)CC1	/	/	4%	-34%	/	0%	0%	/
COC(=O)Nc1ccc(S(=O)(=O)N(CCO)CC(F)(F)C(F)F)cc1	15%	1%	-5%	-3%	-11%	36%	-6%	?
CC(=O)c1nn(-c2cccc(Br)c2)cc1C(=O)c1ccccc1	0.9%	?	7%	-19%	-23%	-14%	1%	?
C=C(C)C(=O)N1CC2(CC(c3cccc(NC(=O)c4ccccc4)c3)=NO2)C[C@@H]1C(N)=O (stereo not given in full)	4.5%	-1%	3%	-6%	/	5%	7%	-2%
CCN(Cc1ccc2c(c1)OCO2)C(=O)/C=C/c1cccc(Br)c1	/	/	-31%	31%[activator]	4%[46.1 µM]	1%	-7%	?
COc1cccc(/C=N/NC(=O)c2cc3c(OC)c(OC)ccc3[nH]2)c1OC	-12%	1%	?	3%	?	7%	6%	?
COC(=O)C1=C(C)N(C)C(=O)/C1=C\c1cccs1	-7.5%	-1%	-7%	/	-1%	-15%	-2%	-15%
CC(C)(SC(=S)N1CCOCC1)C(=O)O	1.8%	-5%	6%	7%	-6%	18%	-2%	22%
C[C@H](NC(=O)c1nc[nH]c1C(=O)NCC(=O)OC(C)(C)C)C(=O)OCc1ccccc1	/	/	-6%	-2%	/	2%	2%	/
CCOc1ccc(Oc2c(C)oc3cc(O)ccc3c2=O)cc1	/	/	-6%	-6%	-3%[46.1 µM]	-12%	0%	4%[46.1 µM]
Cc1cc(O)c(NC(=O)c2ccc(Br)o2)cc1C	-5.6%	?	-10%	59%[activator]	?	6%	-9%	16%
COc1cccc(N=C2SC(C(=O)Nc3ccc(F)cc3)CC(=O)N2C)c1 (stereo not given)	-3.4%	-2%	-15%	/	-16%	-2%	-5%	-14%
CC(=O)c1cc(-c2ccccc2)n(CC(=O)NC2CCCC2)c1C	5.0%	-20%	3%	-13%	18%	-22%	3%	-21%
O=C(COC(=O)CSc1cc(Cl)ccc1Cl)NCc1ccc2c(c1)OCO2	-7.0%	4%	-33%	-13%	14%	-7%	25%	12%
CN1CCN(CCP(=O)(c2ccccc2)c2ccccc2)CC1	-5.2%	-6%	0%	9%	2%	29%	5%	-5%[46.1 µM]
CCN(C(=O)CN1CCN(C)CC1)c1c(N)n(Cc2ccccc2)c(=O)[nH]c1=O	/	/	/	-9%	-7%	3%	-4%	6%
COCCOC(=O)c1c(C)oc2ccc(OC(=O)c3cccs3)cc12	-1.8%	26%	-148%	3%	3%	1%	-27%	2%
Cc1oc(-c2cccc(Cl)c2)nc1CS(=O)(=O)CC(=O)NC1CC1	/	/	-16%	-3%	9%[46.1 µM]	10%	-3%	8%[46.1 µM]
O=C(NNc1ccc([N+](=O)[O-])cc1)C1CC2CCCC(C1)C2=O (stereo not given)	-0.6%	-23%	-109%	12%	9%	10%	-7%	3%
COc1ccc(OC)c(NC(=O)c2nc(SCc3ccc(F)cc3)ncc2Cl)c1	0.6%	-3%	/	-7%	0%[46.1 µM]	/	/	3%[46.1 µM]
COc1ccc(NC(=O)Cn2cc(C(=O)c3ccccc3OC)c(=O)c3ccc(C)nc32)cc1OC	-2.7%	27%	/	?	27%[46.1 µM]	/	/	/
COC(=O)Cc1ccc(OCC(=O)NC2CCCC2)cc1	/	/	/	-1%	-7%	12%	-2%	-3%
COc1ccccc1N1CCN(/N=C/C=C/c2ccccc2[N+](=O)[O-])CC1	/	/	5%	-17%	5%[46.1 µM]	-15%	0%	?
Cc1cc(C)c2[nH]c(=S)cc(C)c2c1	-0.1%	6%	6%	0%	16%	16%	27%	6%
CC(=O)Nc1ccc(NC(=O)C(C)OC(=O)CNS(=O)(=O)c2cccc(Cl)c2)cc1 (stereo not given)	/	/	/	-1%	9%[46.1 µM]	-15%	-4%	-8%[46.1 µM]
CC(C)(C)c1ccc(S(=O)(=O)Nc2cccnc2)cc1	-1.0%	-5%	-12%	12%	15%	-4%	-9%	7%
C=CCOC(=O)C(=O)/C=C/c1c(C)n(C)n(-c2ccccc2)c1=O	/	/	7%	-10%	/	2%	0%	/
Nc1c(-c2nc(-c3ccccc3)no2)nnn1CC(=O)Nc1ccccc1	1.1%	-5%	/	32%[activator]	?	/	/	11%[46.1 µM]
CCc1cccc(NC(=O)Cn2c(C(=O)OC)cc3occc32)c1	-2.6%	?	/	5%	/	/	/	-1%[46.1 µM]
COc1cc(/C=C/C(=O)OCC(=O)NC(=O)C2COc3ccccc3O2)ccc1OC(F)F (stereo not given)	/	/	/	-11%	-8%[46.1 µM]	5%	6%	14%[46.1 µM]
CCOc1ccc(N2C(=O)CC(N(CCc3ccc(S(N)(=O)=O)cc3)C(C)=O)C2=O)cc1 (stereo not given)	/	/	-5%	-2%	1%	0%	2%	7%
COc1cccc(C(=O)Nc2ccc3c(cc2=O)[C@@H](NC(C)=O)CCc2cc(OC)c(OC)c(OC)c2-3)c1	/	/	11%	?	/	14%	0%	/
CNC(=O)Oc1cccc(-c2cn3cc(OC(=O)NC)ccc3n2)c1	-15%	-25%	-38%	0%	?	?	11µM*	?
NC(=O)C1CCN(C(=O)CN(c2cccc(Cl)c2)S(=O)(=O)c2ccccc2)CC1	/	/	-4%	-3%	19%	-23%	4%	0%
Cc1ccc(NC(=O)OCCN2CCN(Cc3ccccc3)CCC2=O)cc1	1.8%&1.9%	-1%&1%	-7%	-28%	-3%	-8%	10%	-25%
CCCSc1nsc(N)n1	4.1%	3%	12%	8%	2%	9%	-20%	-7%
O=C(Nc1ccc(F)cc1)C1CCCO1 (stereo not given)	/	/	6%	23%	11%	-6%	1%	1%[46.1 µM]
COc1cc(NC2c3ccccc3C(=O)N2Cc2ccccc2Cl)cc(OC)c1OC (stereo not given)	/	/	-1%	4%	20%[46.1 µM]	-37%	-2%	-9%[46.1 µM]
CCNC(=S)N/N=C(\C)c1ccc2ccccc2c1OC(F)F	/	/	/	-15%	?	?	-1%	?
CCOC(=O)NC1(C(F)(F)F)NC(=O)N(c2ccc(F)cc2)C1=O (stereo not given)	-1.9%	17%	8%	-18%	12%	-11%	-4%	11%
Cc1ccccc1OCC(=O)N1CCCCCCC1	/	/	0%	2%	5%	44%	-2%	-1%
Cc1ccc(-c2nc(=O)[nH]c3ccccc23)cc1	/	/	5%	2%	4%	4%	1%	?
O=S(=O)(c1ccc(N2CCCC2c2nc3ccccc3s2)nc1)N1CCOCC1 (stereo not given)	-5.8%	?	-2%	-4%	2%	-6%	-4%	?
CCOC(=O)/C=C/C(=O)Nc1cccc([N+](=O)[O-])c1	2.1%	14%	-51%	25µM*	?	8.9µM*	-110%	?
COc1ccc(C2/C=C\CN(Cc3ccc(N(C)C)cc3)CC(=O)N2Cc2ccc(F)cc2)cc1 (stereo not given)	/	/	-8%	0%	/	-4%	-2%	/
O=C(N/N=C/c1ccc(-c2ccc(S(=O)(=O)Nc3ncccn3)cc2)o1)c1cc2ccccc2cc1O	-11%	-17%	19%	2%	-30%	-8%	8%	?
CCCCCCOc1ccc(CN2CCN(C)CC2)cc1	5.7%	1%	3%	-25%	?	2%	-4%	?
O=C(CC1C(=O)NCCN1Cc1cccc(Oc2ccccc2)c1)NCCCn1cccn1 (stereo not given)	/	/	3%	-15%	-22%	-14%	0%	31%[46.1 µM]
CC(C)(C)c1ccc(/C=N/NC(=O)C[n+]2ccccc2)cc1	/	/	-2%	-16%	13%[46.1 µM]	-13%	-5%	18%[46.1 µM]
CCOc1ccc(-n2c(-c3cccs3)nc3ccccc3c2=O)cc1	/	/	0%	?	-6%[46.1 µM]	5%	0%	?
COc1ccc2[nH]c(C(=O)Nc3ncc(C)cc3Br)cc2c1	/	/	-9%	31%[activator]	21%[46.1 µM]	-13%	-1%	?
CN(C(=O)Nc1ccc(Cl)c(Cl)c1)c1ccccc1C(=O)O	-8.4%	-14%	-76%	9%	?	2%	-3%	26%

Screening results from PubChem BioAssay.
